Cruzain inh noDet – qHTS Assay for Promiscuous and Specific Inhibitors of Cruzain (without detergent) | Cruzipain (Trypanosoma cruzi), P25779 | purified cruzain, Z-FR-AMC fluorescence, no detergent | Potency, µM, for inactives: max response, negative = inhibition, actives largely listed as inhibitors | hit rate 2.3% among 200,000 | AID 1476, 2009; active means well fitted curve in the direction sought with a large enough effect; inconclusive means small, poorly fitted or top-dose-only effect, or another doubt; inactive means no such curve, though single readings can be large; an effect the other way counts as inactive or inconclusive;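 further: plate controls were enzyme without inhibitor for no effect and buffer without enzyme for full effect; nearly all actives have a fitted effect of over 40% in size; top concentration of the series not given in the record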
Target sequence (P25779 123-467 limits assumed): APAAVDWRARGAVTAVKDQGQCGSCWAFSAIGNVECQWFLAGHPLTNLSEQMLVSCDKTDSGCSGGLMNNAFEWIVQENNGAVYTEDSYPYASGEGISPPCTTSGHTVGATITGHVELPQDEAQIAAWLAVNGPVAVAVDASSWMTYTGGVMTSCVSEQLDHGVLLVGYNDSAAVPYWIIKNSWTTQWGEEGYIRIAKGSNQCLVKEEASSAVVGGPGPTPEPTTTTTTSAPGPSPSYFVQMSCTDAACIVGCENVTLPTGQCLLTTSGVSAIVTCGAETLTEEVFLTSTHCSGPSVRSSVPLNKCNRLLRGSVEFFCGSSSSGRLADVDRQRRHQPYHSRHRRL
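Purified cruzain at 1.5 nM, pre-incubated 15 min with compound at room temperature in 100 mM sodium acetate pH 5.5, 5 mM DTT, 0.00005% Triton X-100. Reaction started with 2 uM Z-FR-AMC; AMC fluorescence increase over 60 s gives rate.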
RE007 growth inh – qHTS Assay for Inhibitors of the HIV-1 protein Vpr | S. pombe RE007 Vpr strain, BacTiter-Glo ATP luminescence, 24 h; control for the full effect not named in the record | Potency, µM (top dose mostly 92.2 µM), for the others: at the top dose activity change, negative = less growth | hit rate 0.21% among 360,000; active = well fitted falling curve with a large enough effect; inconclusive = small, poorly fitted or top-dose-only effect; inactive = no such curve, though single readings can be large or run the other way;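 further: on the % scale 0 is the no-effect control and ±100 the full control effect; nearly all actives have a fitted effect of over 50% in size; the assay follows cell death caused by Vpr and the record does not say whether a fall means rescue or toxicity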
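Fission yeast RE007 carrying one integrated HIV-1 vpr copy, seeded at OD 0.01 in PMG+AL medium with 23 nL pinned compound. Grown 24 h at 30 degrees; viability read by BacTiter-Glo luminescence after 5 min.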
Marburg entry inh – qHTS for inhibitors of binding or entry into cells for Marburg Virus | Marburg virus pseudotyped entry inhibition, cell reporter; control for the full effect not named in the record; about a third of the inactives were read at about 46 µM | Potency, µM (highest dose often 37.8 µM), without a hit: top-dose activity change, negative = inhibition, actives largely listed as inhibitors | hit rate 1.8% among 300,000; active = well fitted inhibition curve with a large enough effect; inconclusive = small, poorly fitted or top-dose-only effect, or effect the other way; inactive = flat fitted curve, though single readings scatter; tested in HEK293 cells; about a fifth of its hits are not listed in these tables; further: on the % scale 0 is the no-effect control and ±100 the full control effect; luciferase read-out
LASV entry inh – qHTS for Inhibitors of binding or entry into cells for Lassa Virus. Lassa virus pseudotype entry inhibition, cell reporter; control for the full effect not named in the record. Potency, µM (doses to about 37.9 µM), inactives show at the top dose activity change, negative = inhibition, actives largely listed as inhibitors. hit rate 1.2% among 300,000; active means well fitted inhibition curve with a large enough effect; inconclusive means small, poorly fitted or top-dose-only effect, or effect the other way; inactive means flat fitted curve, though single readings scatter; tested in HEK293 cells; further: on the % scale 0 is the no-effect control and ±100 the full control effect; nearly all actives have a fitted effect of over 50% in size; luciferase read-out
Cruzain Triton – qHTS Assay for Promiscuous and Specific Inhibitors of Cruzain (with detergent); Cruzipain (Trypanosoma cruzi), P25779; purified cruzain, Z-FR-AMC fluorescence, 0.01% Triton; Potency, µM, inactives show max response, negative = inhibition, hits mostly inhibitors; hit rate 0.43% among 200,000; AID 1478, 2009; active means well fitted curve in the direction sought with a large enough effect; inconclusive means small, poorly fitted or top-dose-only effect, or another doubt; inactive means no such curve, though single readings can be large; an effect the other way counts as inactive or inconclusive;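 further: plate controls were neutral wells for no effect and buffer without enzyme for full effect; nearly all actives have a fitted effect of over 40% in size; top concentration of the series not given in the record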
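Steps: dispense cruzain (1.5 nM final) in acetate buffer pH 5.5 with DTT and 0.01% Triton X-100; pin-transfer compounds; incubate 15 min RT; add Z-FR-AMC (2 uM final); read fluorescence every 30 s, using the 60 s intensity change.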
StopGo reporter – High Throughput Screening for Foot and Mouth Disease Virus Antivirals. human cells with a luciferase reporter of 2A StopGo recoding; control for the full effect not named in the record. Potency, µM (highest dose often 57.9 µM), for inactives: top-dose signal change, negative = less light. hit rate 1.2% among 410,000; active = well fitted falling curve with a large enough effect; inconclusive = small, poorly fitted or top-dose-only effect; inactive = no such curve, though single readings can be large or run the other way; tested in HEK293T cells; further: on the % scale 0 is the no-effect control and ±100 the full control effect; nearly all actives have a fitted effect of over 45% in size; luciferase light after 4 h
NS1 function inh – qHTS Assay for Inhibitors of Influenza NS1 Protein Function; S. cerevisiae slowed by influenza A NS1, growth recovery by OD600; Potency, µM (highest dose often 46.1 µM), for the others: at the highest dose activity, positive = more growth; hit rate 0.4% among 270,000; further: actives are rising curves; nearly all actives have a fitted effect of over 50% in size
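OD600 was taken as the measure of yeast growth restored by compound in an NS1-expressing S. cerevisiae strain. Cells had been washed out of glucose medium and diluted 1:100 into galactose -URA medium, pH 6.0.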
SARS PLpro yeast – qHTS of Yeast-based Assay for SARS-CoV PLP | S. cerevisiae expressing SARS-CoV PLpro, growth rescue; control for the full effect not named in the record | Potency, µM (highest dose often 32.9 µM), for inactives: top-dose activity, positive = growth rescue | hit rate 0.19% among 330,000; further: 0% is about no effect; nearly all actives have a fitted effect of over 55% in size; growth read by luminescence after 48 h
* hit, by the source's call; ? = inconclusive; / = no result given; & = joins results of further samples; [ ] = dose if it differs, or a comment. Unless noted, the call rests on the fitted dose curve; in most records, active means well fitted rising curve with a large enough effect; inconclusive means small, poorly fitted or top-dose-only effect; inactive means no such curve, though single readings can be large or run the other way. Potency means the concentration at half of the fitted maximal effect.

SMILES | StopGo reporter | RE007 growth inh | Cruzain inh noDet | Marburg entry inh | SARS PLpro yeast | NS1 function inh | Cruzain Triton | LASV entry inh
CCc1noc(C)c1C(=O)Nc1nnc(C(CC)CC)s1 | -18.8% | -1.8% | / | 21.6% | -9.8% | / | / | -4.2%
CCCCC#Cc1cncc(C(=O)N/N=C/c2cccc(OC)c2)c1 | -17.1% | -0.1% | / | / | -1.4% | -44.4% | / | /
Cc1oc(C)c2c(=O)cc(-c3ccc4c(c3)OCO4)cc(OC(=O)c3ccccc3Br)c12 | -11.1% | / | 15.8µM* | -8.9%[46.1 µM] | / | / | -9.5% | 3.9%[46.1 µM]
C/C(=N\NC(=O)c1ccc2c(c1)OCO2)c1ccco1 | -48.6% | 15.9% | / | -26.9%[46.1 µM] | -2.2% | / | / | ?
CC(C)Cn1cc(NC(=O)NCc2cccc(Cl)c2)c2ccccc2c1=O | -17.7% | / | -9.4% | / | / | / | -7.7% | 11.4%[46.1 µM]
CC(C)(C)c1ccc(OC(=O)c2ccc3snnc3c2)cc1 | 21.7% | -9.7% | ? | -20.1% | -3.2% | -4.2% | -3.0% | 20.2%
CC1=C(C(=O)OC(C)C)C(c2cccnc2)C2=C(CCCC2=O)N1 (stereo not drawn) | / | 3.6% | 10.7% | -11.7% | 6.5% | 6.7% | 1.1% | 0.9%
Cc1cc(Cl)ccc1OCC(=O)NCCOC(=O)Nc1sc(=S)n(C)c1C | -20.5% | 4.9% | 25.7% | 14.0% | 2.4% | 1.7% | 2.6% | -16.2%
Cc1cc(S(=O)(=O)Nc2c(C)ccc3nsnc23)ccc1F | 0.0% | 2.1% | 4.6% | -4.4% | -3.6% | -5.8% | 1.4% | 5.2%
Cc1ccccc1N1C(=O)CN(Cc2sccc2C)C1=S | 2.9% | 0.5% | 1.9% | 13.7% | -2.7% | 3.4% | -3.1% | 0.7%
Cc1ccc(S(=O)(=O)N2CCCN(c3nccc(C(F)(F)F)n3)CC2)cc1 | -17.7% | 6.3% | / | -21.2%[46.1 µM] | -2.4% | 2.8% | / | -20.8%[46.1 µM]
O=C1Nc2cc(C(=O)N3CCC4(CC3)OCCO4)ccc2S/C1=C\c1ccccc1 | -8.0% | -6.0% | / | ? | -4.6% | 14.9% | / | -21.4%[46.1 µM]
CCCCNC(=O)N1CCC(CCC(=O)N(C)Cc2ccccc2)CC1 | 2.0% | 5.0% | / | 0.0% | 2.6% | -10.8% | / | -28.7%
CCOC(=O)C1CCCN(C(=O)c2ccc3c(c2)N(Cc2ccccc2F)C(=O)c2ccccc2S3=O)C1 (stereo not drawn) | -18.7% | / | 11.8% | -2.3%[46.1 µM] | / | / | 1.9% | -25.8%[46.1 µM]
CN(C)CCNc1ccc2ncn3c4ccc(O)cc4c(=O)c1c23 | ? | -2.6% | / | ? | / | / | / | ?
COC1C(C)=C(C)C(=O)N1Cc1ccccc1 (stereo not drawn) | 3.7% | -11.3% | / | / | 11.0% | -10.0% | / | /
CCCn1c(Nc2ccccc2C)nc2ccccc21 | -6.8% | 4.9% | -4.0% | -25.5% | 19.6% | 4.9% | -2.1% | 4.3%
COc1ccc(CC(=O)OCc2nnc(C3COc4ccccc4O3)o2)cc1OC (stereo not drawn) | -3.2% | -13.8% | 24.3% | -3.3% | -8.3% | -3.3% | -1.7% | 9.1%
Cc1ccc2c(CC(=O)NCC(C)(C)N3CCOCC3)coc2c1 | 14.2% | 16.4% | / | ? | -3.4% | / | / | 0.4%
O=C(NCc1ccncc1)C1CCCCC1 | 10.2% | 7.1% | -6.3% | 23.7% | 0.7% | 2.4% | 3.6% | 26.5%
CCOC(=O)c1ccc(N=Nc2c(C)c(C#N)c(O)[nH]c2=O)cc1 | 14.4% | -0.1% | / | 12.4%[46.1 µM] | 2.1% | 3.1% | / | 5.3%[46.1 µM]
CCCOc1ccc(OCCN2CCCC(C)C2)cc1 (stereo not drawn) | 5.0% | -3.5% | -6.1% | ? | -11.8% | -4.7% | -1.5% | -5.8%
CCCc1ccc(Oc2c(-c3ccc(O)c(C)c3O)n[nH]c2C)cc1 | 20.5% | ? | -7.0% | ? | -26.2% | -111.2% | -3.0% | ?
COc1ccc2[nH]c(C(=O)O)c(NS(=O)(=O)c3ccc(C)cc3C)c2c1 | -1.7% | -7.2% | / | / | ? | 19.4% | / | /
COc1ccccc1Nc1ncnc2scc(-c3ccc(F)cc3)c12 | ? | / | -4.0% | / | / | / | -4.7% | 5.3%[46.1 µM]
CCCCn1c(N)c(N(CCC(C)C)C(=O)C2CC(=O)N(c3cccc(SC)c3)C2)c(=O)[nH]c1=O (stereo not drawn) | -8.6% | 0.2% | / | ? | -0.8% | / | / | 7.8%
CCc1ccccc1NC(=O)NC(C)c1ccc2c(c1)OCO2 (stereo not drawn) | -19.5% | -13.5% | / | / | -8.2% | 2.9% | / | /
CCCCC(=O)Nc1ccc(NC(=S)NC(=O)c2ccco2)cc1OC | 14.7% | -18.6% | / | 13.0%[46.1 µM] | -1.7% | 2.7% | / | 0.5%[46.1 µM]
COc1ccc(CNC(=O)C2CSCCS2)cc1 (stereo not drawn) | 46.1%[activator] | -0.7% | -0.4% | 20.0% | -3.4% | -16.1% | -4.2% | 11.3%
O=S(=O)(NCCC1=CCCCC1)c1cccc(S(=O)(=O)N2CCOCC2)c1 | 24.5% | -28.2% | 11.1% | ? | 4.7% | -3.8% | 5.1% | -17.5%
Cc1oc2c(c1C(=O)c1ccccc1)C(=O)C(=O)c1ccccc1-2 | ? | ? | ? | ? | -40.1% | -168.9% | -4.8% | 10µM*
Cc1c(NC(=O)c2cc(-c3ccc(O)cc3)on2)c(=O)n(-c2ccccc2)n1C | 47.4%&-8.9%[activator] | 2.3% | -12.1% | 8.7%&8.7%[46.1 µM] | 0.4% | 0.8% | -5.1% | 6.3%[46.1 µM]
O=C(CSc1nnc(-c2ccc(Cl)cc2)c(-c2ccc(Cl)cc2)n1)NC1CCCC1 | 1.6% | / | -9.3% | / | / | / | -7.8% | 6.3%[46.1 µM]
O=C(Nc1ccccc1-c1nnc(SCc2ccccc2Cl)o1)c1ccccc1 | -1.5% | 5.9% | ? | -4.5% | -3.4% | 2.6% | -13.4% | -1.3%
COc1ccc(OC)c(S(=O)(=O)Nc2cccc(-c3ccc(N4CCCCCC4)nn3)c2)c1 | 43.4%&31.7%[activator] | -6.6% | -3.3% | / | -2.7% | 0.8% | -2.1% | 7.6%[46.1 µM]
Cc1cccc(OCC(=O)NNC(=O)CCc2ccccc2)c1 | -3.9% | 4.9% | / | 25.1%[46.1 µM] | 0.3% | 0.7% | / | -19.0%
Cc1ccc(C(=O)O/N=C(\N)c2ccccn2)cc1 | 3.16µM* | ? | / | ? | -23.8% | -25.8% | / | ?
Cc1c(C(=O)NC2CCN(Cc3ccccc3)C2)oc2c(Cl)cccc12 (stereo not drawn) | -28.5% | -8.7% | / | ? | 4.0% | 28.6% | / | 10µM*
O=C(NC(=S)NCCCN1CCOCC1)c1ccc(Br)cc1 | 2.8% | 9.1% | / | -2.4%[46.1 µM] | 1.3% | / | / | /
Cc1cc(NC(=O)CCCSc2nc(-c3ccco3)cc(C(F)(F)F)n2)n(-c2ccccc2)n1 | ? | 42.7% | ? | -48.6% | 5.2% | ? | -0.3% | -16.5%
CCOC(=O)C1=C(C)Nc2ccc(C)cc2S1 | 11.4% | -1.6% | -10.6% | -5.7%[46.1 µM] | -3.4% | -6.4% | -2.6% | -3.0%
O=C(COc1ccc2ccccc2c1)N1CCN(C(=O)c2cccnc2)CC1 | -10.5% | -11.4% | 10.3% | 14.0% | 3.7% | -15.4% | -0.1% | ?
Nc1nc(CN2CCN(Cc3ccc4c(c3)OCO4)CC2)nc(Nc2ccccc2)n1 | -17.6% | -0.9% | -4.3% | 0.8%&0.8% | -3.7% | 1.0% | 0.3% | 16.1%
N#CN=C1CCCCCN1CC(N)=O | 3.6% | -9.7% | 4.8% | 24.8% | 8.3% | ? | 12.3% | ?
C=CCn1c(SCC(=O)N2CCN(C(=O)c3ccco3)CC2)nc2sc(CC)cc2c1=O | -19.0% | 5.2% | 5.8% | -22.1% | 0.9% | -15.3% | -4.9% | -19.9%
Cc1c(-c2cccc(NC(=O)Nc3ccccc3)c2)nc2ncccn12 | 18.6% | / | 17.8% | / | / | / | -5.5% | 16.2%[46.1 µM]
COC(=O)c1ccccc1NC(=O)Nc1c(C)n(C)n(-c2ccccc2)c1=O | 6.8% | 4.8% | / | / | -0.9% | 10.3% | / | /
O=C(/C=C/c1ccc(Cl)c(C(F)(F)F)c1)N1CCN(c2ccccn2)CC1 | ? | 0.7% | / | -4.5%[46.1 µM] | -5.5% | -6.2% | / | /
COc1ccc(N(C(=O)c2ccncc2)S(=O)(=O)c2cccc([N+](=O)[O-])c2)cc1 | -3.7% | -16.6% | / | -16.5%[46.1 µM] | 3.2% | -15.2% | / | 26.3%[46.1 µM]
O=C(CN1CCN(Cc2ccccc2)CC1)Nc1ccc(Cl)cc1 | -18.4% | -13.6% | / | / | -0.1% | 1.2% | / | /
COc1ccccc1/C=N\NC(=O)c1c(C)nc2ccc(Cl)cn12 | 0.0% | 12.5% | / | / | -2.9% | 3.5% | / | /
Cc1oc(C(C)(C)C)cc1-c1cc(NC(=O)c2ccc([N+](=O)[O-])cc2)n[nH]1 | ? | -1.8% | / | ? | -1.4% | 0.6% | / | 0.9%

Source: PubChem (National Center for Advancing Translational Sciences (NCATS))
